# Screening results as filed in PubChem.
# Rango release inh – inhibition of RanGTP-driven Rango-importin beta dissociation. O95149+P62826. Biochemical FRET Rango-importin beta, RanGTP-induced dissociation. Potency, µM (series often up to 46.1 µM), without a hit: at the top dose activity change, negative = inhibition. hit rate 0.071% among 340,000. AID 540253; active means falling FRET ratio curve, often poorly fitted, with flat reads before Ran was added; inconclusive means other falling curves, or compound fluorescence or quenching; inactive means flat or rising ratio curve;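 further: potency means the concentration at half of the fitted maximal effect; % of control where 0% means no effect; nearly all actives have a fitted effect of over 45% in size; -100% = wells without RanGTP and RCC1; the record marks most hits as doubtful in a second field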
#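 Recombinant Rango FRET biosensor (EYFP–snurportin 1 IBB–cerulean CFP10) at 0.1 uM premixed with 0.25 uM importin beta in PBS, 1 mM DTT, 0.02% Tween-20, 0.1% BSA. Compound added 5 min; RanGTP-RCC1 (0.6 uM Ran, 2 mM GTP, 0.2 uM RCC1) then triggers release, read at 45 min.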
# GLA inh pH 4.5 – inhibitors of human alpha-galactosidase A at pH 4.5; AID 1467; P06280; activity change, negative = inhibition, % at 105 µM; 230,000 tested, under 10 active; purified enzyme, 4-MU-alpha-Gal fluorescence, pH 4.5; inconclusive = small, poorly fitted or top-dose-only inhibition, or a rising curve; inactive = flat fitted curve, though single readings scatter; no compound was filed as active;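 further: 0% = full activity with enzyme and -100% = basal without enzyme; dose as in the result columns while the protocol names 77 µM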
# Target sequence (P06280 whole entry, looked up): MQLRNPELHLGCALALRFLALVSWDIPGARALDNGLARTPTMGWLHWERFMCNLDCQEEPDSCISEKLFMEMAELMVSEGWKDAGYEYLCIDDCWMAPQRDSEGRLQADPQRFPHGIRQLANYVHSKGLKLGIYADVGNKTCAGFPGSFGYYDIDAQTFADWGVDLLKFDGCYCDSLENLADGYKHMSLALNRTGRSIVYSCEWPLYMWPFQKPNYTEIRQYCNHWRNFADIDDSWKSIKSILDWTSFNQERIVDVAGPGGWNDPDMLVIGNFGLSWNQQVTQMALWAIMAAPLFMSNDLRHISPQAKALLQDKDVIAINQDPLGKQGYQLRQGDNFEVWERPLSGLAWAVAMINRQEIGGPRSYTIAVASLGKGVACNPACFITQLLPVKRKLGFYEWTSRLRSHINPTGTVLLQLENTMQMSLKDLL
# miR-21 FLuc – miR-21 reporter, rising signal; HeLa miR-21 FLuc reporter, luciferase, 48 h; Potency, µM (titrated, usually from 38.3 µM), inactives show at the highest dose reporter change, positive = more light; 340,000 tested, under 10 active; active = well fitted rising curve with a large enough effect; inconclusive = small, poorly fitted or top-dose-only effect; inactive = no such curve, though single readings can be large or run the other way;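 further: % of control where 0% means no effect; miR-21 action dims this reporter so a rising signal means less miR-21 action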
#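 Compounds were titrated across several concentrations (up to approximately 40 uM) and incubated 48 hours with HeLa miR-21-FLuc reporter cells (miR-21 target sequence downstream of FLuc, endogenous miR-21). Readout was firefly luciferase luminescence after lytic detection reagent.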
# Rango complex inh – prevents formation of the Rango-importin beta complex | Q14974 | Rango CFP/YFP FRET sensor + importin beta, 45 min | Potency, µM (series often up to 92.2 µM), for the others: at the top dose inhibition of complex formation | hit rate 0.031% among 340,000 | AID 540263; active = rising FRET ratio curve, often small or poorly fitted; inconclusive = mostly compound fluorescence or quenching in the first reads; inactive = flat curves in all reads;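 further: potency means the concentration at half of the fitted maximal effect; 0% = DMSO wells and 100% = buffer wells lacking importin beta; nearly all actives have a fitted effect of over 15% in size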
#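 FRET biosensor Rango (snurportin 1 IBB between N-terminal EYFP and C-terminal Cerulean), 50 nM in PBS/1 mM DTT/0.02% Tween-20/0.1% BSA, preincubated 5 min RT with compound; 0.125 microM importin beta added, 45 min RT, CFP/YFP FRET ratio read.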
# Active calls of the source: *; ? = inconclusive; nt = not tested or not shown; & = joins results of further samples.
SMILES,Rango release inh,GLA inh pH 4.5,miR-21 FLuc,Rango complex inh
Cc1ccc(S(=O)(=O)NC(=O)c2cc(C)n(-c3ccccc3)c2C)cc1,-2.7%,-2.5,-7.0%,-4.5%
COc1cc(NC(=S)NC(C)(C)C)c(OC)cc1Cl,0.5%,3.3,15.4%,0.5%
CCOc1ccc2oc(C(=O)N(CC)CC(=O)Nc3ccc(NC(C)=O)cc3)c(C)c2c1,-23.7%,nt,nt,-2.2%
CCN1C(=O)[C@H]2[C@H]3CN=C(SCC(=O)c4ccccc4)N3[C@@](CC)(C(=O)OC)[C@H]2C1=O,-9.8%,nt,nt,-1.6%
CC1CCN(CCCNC(=O)c2ccc3c(Cl)c4c(nc3c2)CCCC4)CC1,9.1%,-4.0,-0.8%,3.7%
Cc1ccc(N2CC(C(=O)Nc3nnc(SCC(=O)N4CCOCC4)s3)CC2=O)cc1 (stereo not given),-17.5%,nt,-0.9%,1.1%
O=C(Nc1ccccc1C(=O)N/N=C/c1ccc(F)cc1)c1ccccc1Br,4.9%,-22.3,-7.8%,-0.4%
Cc1ccc(C)c(S(=O)(=O)N2CCN(C(=O)CCNC(=O)c3ccc(Br)cc3)CC2)c1,6.5%,nt,nt,0.2%
CC(C)COc1ccc(CNC(=S)NCc2ccccc2)cc1,3.1%,-15.0,-2.4%,-4.6%
O=C(c1ccc(S(=O)(=O)c2ccccc2Cl)c([N+](=O)[O-])c1)N1CCCCCC1,-7.6%,2.3,8.2%,2.6%
COC(OC)c1ccnc(-c2ccc(OC(=O)c3cccs3)cc2)n1,13.7%,-9.3,-16.1%,-2.6%
CCc1ccc(NC(=O)C/C(C)=N/NC(=O)COc2ccccc2C)cc1,8.7%,nt,-11.3%,-2.5%
CCc1nc2ccccc2c(C(=O)OCC(=O)NCCCN2CCCC2=O)c1C,0.6%,4.2,-10.9%,-0.2%
Cc1ccc(C(=O)NC2CCN(C(=O)Nc3ccccc3)CC2)cc1,-6.0%,nt,0.8%,-1.3%
O=C(c1cccc(S(=O)(=O)Nc2ccc(F)cc2)c1)N1CCC1,-12.3%,nt,nt,-0.3%
COc1ccc(-c2nnc(SC(C)C(=O)Nc3nccs3)n2Cc2ccccc2)cc1OC (stereo not given),1.7%,3.8,-0.2%,0.3%
COc1cc2c(cc1OC)CN(C(=O)c1cc(C3CC3)nn1-c1ccccc1)CC2,1.1%,nt,nt,-0.2%
O=c1oc2cc(OCCO)ccc2c2c1CCCC2,-8.1%,nt,-38.6%,4.1%
C[C@H](CO)N1C[C@H](C)[C@@H](CN(C)Cc2ccc(-c3ccccc3)cc2)Oc2ccc(NC(=O)Cn3cnnn3)cc2C1=O,-4.6%,nt,nt,-4.7%
CC(=O)N1N=C(c2cccs2)CC1c1cccs1 (stereo not given),8.9%,3.7,-13.4%,-1.3%
CCCC(=O)Nc1ccc(-c2nc3cc(C)c(C)cc3o2)cc1,3.4%,5.5,-47.2%,4.7%
CCN(C(=O)COC(=O)/C=C/c1cnc2ccccc2n1)c1ccccc1,11.2%,-13.8,4.5%,-2.3%
Cc1ccc[n+](C(C)C(=O)c2ccc(-c3ccccc3)cc2)c1 (stereo not given),-2.6%,-3.4,28.3%,-1.7%
CCN(C(=O)CSc1nnc(-c2ccncc2)n1Cc1ccccc1)C1CCS(=O)(=O)C1 (stereo not given),-17.5%,8.8,-7.8%,2.8%
CCOc1ccc(C2C(C(=O)C3CC3)N3C=C(C#N)C=CC3C2(C#N)C#N)cc1 (stereo not given),nt,-7.9,-6.0%,nt
# More structures:
SMILES,Rango release inh,GLA inh pH 4.5,miR-21 FLuc,Rango complex inh
COc1ccccc1CC(NC(C)=O)C(=O)NC1CCN(C(=O)Nc2cccc(F)c2)CC1 (stereo not given),-16.3%,nt,1.8%,3.4%
Cc1csc(NC(=O)c2cc(C)oc2C)n1,5.3%,-6.7,-32.9%,0.7%
CCOc1cc(CNC(C)(C)CO)cc(Br)c1OCc1ccc(Cl)cc1Cl,6.0%,-1.6,?,7.4%
Cc1ccc(-c2ccc(=O)n(Cc3cccc(Br)c3)n2)cc1,-5.5%,nt,-4.8%,0.0%
Cc1c(Cl)cccc1NC(=O)NCc1ccncc1,-7.2%,2.4,-6.6%,3.5%
O=C(COC(=O)/C=C/c1ccccc1[N+](=O)[O-])NCC(F)(F)F,-7.0%,5.2,1.8%,1.0%
CCN(CCCc1ccccc1)CCCc1ccccc1,12.6%,-13.3&-3.1,-1.0%,-4.3%
C=CCOc1ccc(Br)cc1/C=C1/SC(=Nc2ccc(C(=O)O)cc2)NC1=O,-11.9%,-8.5,-0.6%,?
CCNc1nc(N)nc(Oc2ccc(OCCOc3ccc(Cl)cc3Cl)nn2)n1,-2.6%,-2.6,-22.1%,2.8%
COc1ccc(Cl)cc1NC(=O)CCN1CCN(c2ccccc2C)CC1,7.9%,-9.6,0.2%,-1.5%
O=C(Nc1cccc(C(F)(F)F)c1)C1CCCN1S(=O)(=O)c1cccc2cccnc12 (stereo not given),-0.5%,0.0,13.9%,4.2%
CC(C)Cc1nnc(NC(=O)CCc2c[nH]c3ccccc23)s1,-4.9%,2.5,0.7%,-3.0%
CCOc1cc(/C=N/N2C(=O)NC3(CCCCC3)C2=O)cc(Br)c1O,2.5%,-11.1,-14.1%,1.4%
CC(C)C(C(=O)OCC(=O)c1cccc([N+](=O)[O-])c1)N1C(=O)[C@@H]2[C@H]3CC[C@H](C3)[C@@H]2C1=O (stereo not given in full),-6.0%,-2.5,2.3%,-2.4%
CC(=O)Nc1ccccc1NC(=O)CN(C)S(=O)(=O)c1ccc(C)cc1,7.8%,-22.5,-4.8%,-0.4%
O=C(O)c1ccc2c(c1)C(=O)N(c1ccc(/C=C/C(=O)c3ccccc3)cc1)C2=O,2.5%,7.5,-21.7%,?
COc1ccc(OCCSc2ccc(S(=O)(=O)N3CCCC3)cn2)cc1,11.9%,nt,nt,-0.4%
O=C(Nc1ccnn1C1CCN(Cc2cccc(O)c2)CC1)C1CCCC1,6.4%,nt,0.7%,0.7%
COc1ccc(NS(=O)(=O)c2cccc(N3CC(O)=C(c4ccccc4)C3=N)c2)cc1,-10.4%,-7.6,-4.9%,-0.9%
CCOc1ccc(S(=O)(=O)N2CCN(C(=O)c3oc4ccccc4c3C)CC2)cc1,21.0%,nt,nt,0.8%
CSc1ccc(CNC(=O)C(C)n2nc(C)c3c(C)n(-c4ccccc4)nc3c2=O)cc1 (stereo not given),-11.4%,nt,12.9%,1.9%
CCN(CC)CCCn1c2c(c(SCC(=O)Nc3cccc(C(C)=O)c3)nc1=O)CCC2,10.7%,nt,nt,-1.4%
O=[N+]([O-])c1cccc(/C([O-])=C(/C(=S)Nc2ccccc2)[n+]2ccccc2)c1,1.6%,2.4,-44.1%,-2.0%
CC(C)(C)[C@H]1C=C(C(=O)N2CCN(Cc3ccccc3)CC2)O[C@@H](OCCCCO)C1,2.3%,-0.1,2.6%,3.7%
CC(C)CC(c1nnnn1C1CCCC1)N1CCC(C(N)=O)CC1 (stereo not given),3.3%,3.6,2.4%,5.1%
# The list continues:
SMILES,Rango release inh,GLA inh pH 4.5,miR-21 FLuc,Rango complex inh
O=C(NCCCN1CCOCC1)c1cc(-c2cccc(O)c2)on1,-1.3%,nt,-32.2%,1.0%
COC(=O)c1ccc2c(=O)n(CCCCCC(=O)N3CCN(c4ccc(F)cc4)CC3)c(=O)[nH]c2c1,-2.9%,-6.5,-1.7%,-1.2%
O/N=C/c1ccc(OCC(O)COc2ccc(/C=N/O)cc2)cc1,0.7%,-7.7,0.2%,0.4%
COc1ccc([N+](=O)[O-])cc1N1C(=O)c2cccc3cccc(c23)C1=O,5.6%,-7.9,-3.8%,0.0%
CC(=O)/C(C#N)=C1\NC(=O)C(Cc2ccccc2Cl)S1 (stereo not given),2.9%,3.2,25.5%,-2.3%
Cc1cccc(NC(=O)CCS(=O)(=O)c2cccc3nsnc23)c1C,0.6%,2.0,1.8%&-3.2%,1.7%
COc1ccc(C2N(C(=O)c3ccccc3)CCN2C(=O)c2ccccc2)cc1,0.3%,-4.0,-1.8%,5.5%
C=CCc1ccccc1OCCSc1nc2ccc([N+](=O)[O-])cc2s1,0.7%,-1.0,1.0%,0.0%
COC(=O)C1C2C=CC3(CN(c4cccc(C)c4)C(=O)C13)O2 (stereo not given),4.9%,0.1,-4.6%,1.1%
O=C(NCCN1CCOCC1)c1cccc(S(=O)(=O)Nc2cc(Cl)ccc2Cl)c1,1.8%,nt,nt,0.3%
CC(=O)c1cc2c(s1)-c1cc(F)ccc1OC2,?,-2.6,-22.8%,?
Cc1cc(SCC(=O)c2cccs2)n2nc(C)c(-c3ccccc3)c2n1,4.9%,5.5,-0.9%,1.0%
O=C(O)C1CCCCC1C(=O)N1CCCC1 (stereo not given),1.7%,4.3,-2.6%,-1.7%
COc1ccc(N2CCN(C(=O)CNS(=O)(=O)c3ccc(C)c(C)c3)CC2)cc1,-4.3%,-2.0,-0.3%,0.5%
CN(C)CCN(C(=O)CCc1ccccc1)c1nc2c(F)cc(F)cc2s1,?,-4.2,-12.0%,?
COc1cc(C(=O)NNC(=O)c2cc(C)[nH]n2)cc(OC)c1OC,0.4%,1.4,4.5%,-1.3%
c1ccc2sc(NN=C3CCCC3)nc2c1,-3.7%,-9.9,-20.9%,1.7%
Fc1ccc(Nc2nc(-c3ccncc3)cs2)cc1,-0.1%,-2.4,-28.1%,2.1%
CCCC(=O)N(c1ccccc1)C1C=CS(=O)(=O)C1 (stereo not given),-16.4%,-4.5,2.3%,3.8%
Cc1c(NC(=O)COC(=O)c2ccc(F)c(S(=O)(=O)N3CCOCC3)c2)c(=O)n(-c2ccccc2)n1C,55.2%,-3.0,-0.6%,-2.5%
OCC1=C[C@@H](O)[C@@H]2C=CO[C@@H](O[C@@H]3O[C@H](CO)[C@@H](O)[C@H](O)[C@H]3O)[C@H]12,-1.7%,nt,nt,0.7%
CC(=O)Nc1ccc(S(=O)(=O)N2CCN(C(=O)c3ncoc3-c3ccccc3)CC2)cc1,?,nt,-0.5%,0.2%
Cc1ccc(-c2nnn(C/C(N)=N/O)n2)cc1,0.5%,5.3,?,-3.9%
CCCNC(=O)C(NS(=O)(=O)c1cccc2nsnc12)c1ccccc1 (stereo not given),1.7%,-3.4,0.3%,0.0%
Cc1ccc(-c2nc(CN3CCCCC3CCN3CCCC3=O)c(C)o2)o1 (stereo not given),-14.0%,8.6,-7.2%,-0.1%

# Not all compounds are listed (hit frequency here may not be typical).
